Screening results from PubChem BioAssay.
A1 apoptosis 2 = blocks A1, raising caspase activity. MEF A1-2A-BIM cells, caspase-Glo luminescence, 3 h; percent of clofoctol response, DMSO zero. caspase activation, % (concentration not given with the values). 24,000 tested, under 10 active; in the data active means caspase activation above about 5.9%;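 further: wells of about 30 µL received 50 nL stock; the first replicate is given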
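system = A1-2A-BIM-expressing MEF cells | quantity = 2500 MEF cells/well | dosing = 50 nL compound per well, pinned | schedule = overnight cell settling, then 3 h compound exposure, 37 °C | signal = luminescence from DEVD-luciferin Caspase-Glo reagent, 1:1 in 50 mM HEPES, 1 h RT | read-out = Caspase-3/7 activation, seen as rise in luminescence signal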
Active calls of the source: *. The list is partial. The share of hits here may be higher or lower than overall.

SMILES | A1 apoptosis 2
COc1ccc(NC(=O)Nc2ccc3c(c2)C(=O)N([C@H](C)CO)C[C@H](C)[C@H](CN(C)S(=O)(=O)c2cn(C)cn2)OCCCC[C@@H](C)O3)cc1 | -2.4
C[C@@H]1CCCCO[C@@H](CN(C)C(=O)c2ccncc2)[C@H](C)CN([C@H](C)CO)C(=O)c2cc(N(C)C)ccc2O1 | 0.3
COc1ccc(NC(=O)Nc2ccc3c(c2)C(=O)N([C@@H](C)CO)C[C@@H](C)[C@@H](CN(C)CC2CCCCC2)OCCCC[C@H](C)O3)cc1 | 1.2
CNC[C@@H]1OCCCC[C@@H](C)Oc2ccc(NC(=O)C3CCCCC3)cc2C(=O)N([C@@H](C)CO)C[C@H]1C | -0.3
CC(C)NC(=O)N(C)C[C@@H]1OCCCC[C@H](C)Oc2ccc(NC(=O)Nc3ccc(C(F)(F)F)cc3)cc2C(=O)N([C@H](C)CO)C[C@@H]1C | 0.1
COc1ccc(CN(C)C[C@@H]2Oc3ccc(NS(=O)(=O)c4ccc(OC)cc4)cc3CC(=O)N([C@@H](C)CO)C[C@H]2C)cc1 | -1.0
CNC[C@H]1OCCCC[C@@H](C)Oc2ccc(NS(=O)(=O)c3ccc(F)cc3)cc2C(=O)N([C@@H](C)CO)C[C@@H]1C | 1.1
COc1ccc(CN(C)C[C@@H]2Oc3c(NC(=O)C4CCCCC4)cccc3C(=O)N([C@@H](C)CO)C[C@@H]2C)cc1 | 2.0
COc1ccc(S(=O)(=O)N(C)C[C@@H]2Oc3ccc(NS(=O)(=O)c4ccc(Cl)cc4)cc3C(=O)N([C@@H](C)CO)C[C@@H]2C)cc1 | -1.1
COc1ccc(CN(C)C[C@@H]2OCCCC[C@H](C)Oc3ccc(NS(=O)(=O)c4ccc(Cl)cc4)cc3C(=O)N([C@@H](C)CO)C[C@@H]2C)cc1 | 0.3
C[C@H](CO)N1C[C@H](C)[C@H](CN(C)C(=O)Nc2ccc(C(F)(F)F)cc2)Oc2ccc(NC(=O)NC3CCCCC3)cc2CC1=O | -0.2
C[C@@H]1CN([C@@H](C)CO)C(=O)c2cccc(NS(=O)(=O)c3ccc(F)cc3)c2O[C@H]1CN(C)C(=O)NC1CCCCC1 | 0.6
C=C/C=C/[C@@H]1C(=C)CN2[C@H]1[C@H](Cc1ccccc1)OC(=O)C21CCCC1 | -0.1
C[C@H](CO)N1C[C@H](C)[C@H](CN(C)C(=O)CCC(F)(F)F)OCCCC[C@H](C)Oc2ccc(NS(=O)(=O)c3cccs3)cc2C1=O | 0.4
C[C@@H]1CN([C@@H](C)CO)C(=O)c2cc(NC(=O)Cn3cnnn3)ccc2O[C@H]1CN(C)S(C)(=O)=O | -1.6
Cc1ccc(S(=O)(=O)N(C)C[C@@H]2Oc3ccc(NS(=O)(=O)c4ccc(Cl)cc4)cc3CC(=O)N([C@H](C)CO)C[C@@H]2C)cc1 | -0.6
COc1ccc(S(=O)(=O)Nc2ccc3c(c2)C(=O)N([C@H](C)CO)C[C@H](C)[C@@H](CN(C)S(=O)(=O)c2cccs2)O3)cc1 | -0.4
C[C@@H]1CCCCO[C@@H](CN(C)C(=O)CCC(F)(F)F)[C@H](C)CN([C@@H](C)CO)C(=O)c2cc(NS(=O)(=O)c3cccs3)ccc2O1 | -1.6
COc1ccc(NC(=O)N(C)C[C@H]2OCCCC[C@@H](C)Oc3ccc(NS(=O)(=O)c4cccs4)cc3C(=O)N([C@@H](C)CO)C[C@@H]2C)cc1 | -0.1
COc1ccc(NC(=O)Nc2ccc3c(c2)C(=O)N([C@@H](C)CO)C[C@@H](C)[C@H](CN(C)C)O3)cc1 | 1.6
C[C@H]1CN([C@@H](C)CO)C(=O)CCCn2cc(nn2)CO[C@H]1CN(C)Cc1ccc2c(c1)OCO2 | 0.4
C[C@H]1CN([C@@H](C)CO)C(=O)c2cccc(NS(=O)(=O)c3cccs3)c2O[C@H]1CN(C)S(=O)(=O)c1cccs1 | 0.7
COc1ccc(NC(=O)Nc2ccc3c(c2)C(=O)N([C@@H](C)CO)C[C@H](C)[C@H](CN(C)S(=O)(=O)c2ccc(C)cc2)OCCCC[C@@H](C)O3)cc1 | -1.2
COc1ccc(NC(=O)Nc2ccc3c(c2)C(=O)N([C@@H](C)CO)C[C@H](C)[C@@H](CN(C)S(=O)(=O)c2ccc(OC)cc2)O3)cc1 | -0.2
C[C@H](CO)N1C[C@H](C)[C@H](CN(C)Cc2ccncc2)Oc2ccc(NC(=O)Nc3cccc4ccccc34)cc2CC1=O | -1.0

The final 7 records of the part before are carried over, then new ones follow.
SMILES | A1 apoptosis 2
COc1ccc(NC(=O)N(C)C[C@H]2OCCCC[C@@H](C)Oc3ccc(NS(=O)(=O)c4cccs4)cc3C(=O)N([C@@H](C)CO)C[C@@H]2C)cc1 | -0.1
COc1ccc(NC(=O)Nc2ccc3c(c2)C(=O)N([C@@H](C)CO)C[C@@H](C)[C@H](CN(C)C)O3)cc1 | 1.6
C[C@H]1CN([C@@H](C)CO)C(=O)CCCn2cc(nn2)CO[C@H]1CN(C)Cc1ccc2c(c1)OCO2 | 0.4
C[C@H]1CN([C@@H](C)CO)C(=O)c2cccc(NS(=O)(=O)c3cccs3)c2O[C@H]1CN(C)S(=O)(=O)c1cccs1 | 0.7
COc1ccc(NC(=O)Nc2ccc3c(c2)C(=O)N([C@@H](C)CO)C[C@H](C)[C@H](CN(C)S(=O)(=O)c2ccc(C)cc2)OCCCC[C@@H](C)O3)cc1 | -1.2
COc1ccc(NC(=O)Nc2ccc3c(c2)C(=O)N([C@@H](C)CO)C[C@H](C)[C@@H](CN(C)S(=O)(=O)c2ccc(OC)cc2)O3)cc1 | -0.2
C[C@H](CO)N1C[C@H](C)[C@H](CN(C)Cc2ccncc2)Oc2ccc(NC(=O)Nc3cccc4ccccc34)cc2CC1=O | -1.0
C[C@@H]1CCCCO[C@@H](CN(C)S(=O)(=O)c2ccc(Cl)cc2)[C@@H](C)CN([C@H](C)CO)C(=O)c2cc(NC(=O)Nc3cccc4ccccc34)ccc2O1 | 0.4
CC(C)NC(=O)Nc1ccc2c(c1)C(=O)N([C@H](C)CO)C[C@H](C)[C@@H](CN(C)C(=O)c1ccncc1)OCCCC[C@H](C)O2 | 0.5
C[C@@H]1CN([C@@H](C)CO)C(=O)c2cccc(NC(=O)C3CCCCC3)c2O[C@H]1CN(C)C(=O)Nc1cccc2ccccc12 | 1.3
C[C@@H]1CCCCO[C@@H](CN(C)Cc2ccc(C(F)(F)F)cc2)[C@@H](C)CN([C@H](C)CO)C(=O)c2cc(N(C)C)ccc2O1 | -0.5
C[C@H](CO)N1C[C@H](C)[C@@H](CN(C)Cc2ccncc2)Oc2c(NS(=O)(=O)c3cccs3)cccc2C1=O | 0.9
C[C@H]1CN([C@@H](C)CO)C(=O)Cc2cc(NC(=O)Nc3ccccc3)ccc2O[C@H]1CN(C)C(=O)Nc1ccc(C(F)(F)F)cc1 | 0.1
C[C@H](CO)N1C[C@H](C)[C@H](CN(C)CC2CCCCC2)Oc2ccc(NC(=O)Nc3ccc4c(c3)OCO4)cc2C1=O | 0.0
C[C@@H]1CN([C@H](C)CO)C(=O)c2cccc(NC(=O)Nc3ccc4c(c3)OCO4)c2O[C@H]1CN(C)C(=O)NC1CCCCC1 | 1.9
C[C@@H]1CN([C@H](C)CO)C(=O)Cc2cc(NC(=O)NC3CCCCC3)ccc2O[C@@H]1CN(C)Cc1ccncc1 | -0.4
CC(=O)N1CCN(c2ccc(N)cc2)CC1 | 1.1
C[C@@H]1CN([C@@H](C)CO)C(=O)c2cccc(NS(=O)(=O)c3ccc(Cl)cc3)c2O[C@@H]1CN(C)C(=O)NC1CCCCC1 | 0.1
C[C@@H]1CN([C@H](C)CO)C(=O)c2cc(NC(=O)c3ccncc3)ccc2O[C@@H](C)CCCCO[C@H]1CN(C)Cc1ccc(Cl)c(Cl)c1 | 1.5
COc1ccc(S(=O)(=O)Nc2ccc3c(c2)C(=O)N([C@@H](C)CO)C[C@@H](C)[C@@H](CN(C)C(=O)Nc2ccccc2)O3)cc1 | 1.9
Cc1noc(C)c1NC(=O)Nc1ccc2c(c1)C(=O)N([C@H](C)CO)C[C@@H](C)[C@@H](CN(C)Cc1ccccc1)O2 | 1.1
C[C@H]1CN([C@@H](C)CO)C(=O)c2cccc(NS(=O)(=O)c3cccs3)c2O[C@H]1CN(C)Cc1ccc(C(F)(F)F)cc1 | 0.1
C[C@@H]1CN([C@H](C)CO)C(=O)Cc2cc(NC(=O)Nc3ccccc3)ccc2O[C@@H]1CN(C)S(=O)(=O)c1cccs1 | 0.9
C[C@@H]1CN([C@H](C)CO)C(=O)c2cc(NC(=O)Nc3ccc4c(c3)OCO4)ccc2O[C@@H](C)CCCCO[C@@H]1CN(C)C(=O)c1ccccc1 | 0.9
C[C@@H]1CN([C@H](C)CO)C(=O)CCCn2cc(nn2)CO[C@@H]1CN(C)S(=O)(=O)c1ccc(Oc2ccccc2)nc1 | -0.1
C[C@@H]1CN([C@H](C)CO)C(=O)c2cc(NC(=O)Nc3ccc(F)cc3)ccc2O[C@@H](C)CCCCO[C@H]1CN(C)C(=O)C1CCCCC1 | -1.1
C[C@H](CO)N1C[C@H](C)[C@@H](CN(C)S(=O)(=O)c2cccs2)Oc2c(NC(=O)C3CCOCC3)cccc2C1=O | -0.1
C[C@@H]1CN([C@@H](C)CO)C(=O)c2cc(NC(=O)CCC(F)(F)F)ccc2O[C@@H](C)CCCCO[C@@H]1CN(C)S(=O)(=O)c1ccc(Cl)cc1 | 0.1
C[C@H](CO)N1C[C@H](C)[C@H](CN(C)S(=O)(=O)c2cccs2)Oc2c(NC(=O)C3CC3)cccc2C1=O | -0.2
Cc1noc(C)c1S(=O)(=O)Nc1ccc2c(c1)C(=O)N([C@H](C)CO)C[C@H](C)[C@H](CN(C)Cc1ccc(C(=O)O)cc1)OCCCC[C@@H](C)O2 | -0.9
C[C@@H]1CN([C@H](C)CO)C(=O)Cc2cc(NC(=O)CCCCCC(=O)Nc3ccccc3N)ccc2O[C@H]1CN(C)C(=O)Nc1ccc(C(F)(F)F)cc1 | 0.7
C[C@H](CO)N1C[C@H](C)[C@H](CN(C)Cc2ccccc2)Oc2ccc(NC(=O)Cc3cn(C)c4ccccc34)cc2CC1=O | -0.6

Continued.
SMILES | A1 apoptosis 2
C[C@@H]1CN([C@H](C)CO)C(=O)c2cc(NC(=O)Nc3ccc(F)cc3)ccc2O[C@@H]1CN(C)S(=O)(=O)c1cccs1 | 1.6
C[C@@H]1CN([C@@H](C)CO)C(=O)Cc2cc(NC(=O)NC3CCCCC3)ccc2O[C@H]1CN(C)S(=O)(=O)c1ccc(F)cc1 | -0.7
C[C@H]1CN([C@@H](C)CO)C(=O)c2cccc(NS(=O)(=O)c3cn(C)cn3)c2O[C@H]1CN(C)S(=O)(=O)c1ccc(F)cc1 | -0.7
C[C@@H]1CCCCO[C@@H](CN(C)C(=O)Nc2ccc(F)cc2)[C@H](C)CN([C@H](C)CO)C(=O)c2cc(NS(=O)(=O)c3cccs3)ccc2O1 | -0.6
C[C@]12C=CC(=O)N1CCc1c2[nH]c2ccccc12 | -0.2
Cc1ccc(S(=O)(=O)N(C)C[C@H]2Oc3c(NS(=O)(=O)c4ccccc4)cccc3C(=O)N([C@@H](C)CO)C[C@H]2C)cc1 | 1.0
COc1ccc(S(=O)(=O)N(C)C[C@@H]2OCCCC[C@@H](C)Oc3ccc(NS(C)(=O)=O)cc3C(=O)N([C@@H](C)CO)C[C@@H]2C)cc1 | 0.6
C[C@H]1CN([C@@H](C)CO)C(=O)c2cc(NC(=O)Cc3ccccc3)ccc2O[C@H]1CN(C)CC1CC1 | 0.2
COc1ccc(NC(=O)Nc2ccc3c(c2)C(=O)N([C@@H](C)CO)C[C@H](C)[C@H](CN(C)S(=O)(=O)c2ccccc2)O3)cc1 | 0.6
COc1ccc(CN(C)C[C@H]2OCCCC[C@@H](C)Oc3ccc(NS(=O)(=O)c4cn(C)cn4)cc3C(=O)N([C@@H](C)CO)C[C@@H]2C)cc1 | 0.0
COc1ccc(NC(=O)Nc2ccc3c(c2)C(=O)N([C@H](C)CO)C[C@@H](C)[C@H](CN(C)S(=O)(=O)c2ccc(F)cc2)OCCCC[C@@H](C)O3)cc1 | 2.5
C#CCNC(=O)C1=C[C@H](c2ccc3c(c2)OCO3)[C@@H](CCCO)[C@H](OCC)O1 | -0.7
C[C@@H]1CCCCO[C@H](CN(C)C(=O)Nc2ccccc2)[C@@H](C)CN([C@@H](C)CO)C(=O)c2cc(NC(=O)CCC(F)(F)F)ccc2O1 | -0.4
C[C@@H]1CCCCO[C@H](CN(C)C(=O)NC2CCCCC2)[C@H](C)CN([C@@H](C)CO)C(=O)c2cc(NS(=O)(=O)c3ccccc3)ccc2O1 | -0.6
COc1ccc(NC(=O)Nc2ccc3c(c2)C(=O)N([C@H](C)CO)C[C@@H](C)[C@@H](CN(C)Cc2ccc4c(c2)OCO4)OCCCC[C@H](C)O3)cc1 | -1.7
C[C@@H]1CCCCO[C@@H](CN(C)Cc2ccccc2)[C@H](C)CN([C@H](C)CO)C(=O)c2cc(NC(=O)Nc3ccccc3)ccc2O1 | 1.2
C[C@H](CO)N1C[C@H](C)[C@H](CN(C)Cc2ccc(Oc3ccccc3)cc2)Oc2c(NS(=O)(=O)c3ccc(F)cc3)cccc2C1=O | -0.3
C[C@@H]1CCCCO[C@@H](CN(C)Cc2ccncc2)[C@@H](C)CN([C@@H](C)CO)C(=O)c2cc(NC(=O)Nc3ccc4c(c3)OCO4)ccc2O1 | -0.4

2 successive records from above, for reference:
SMILES | A1 apoptosis 2
C[C@@H]1CN([C@H](C)CO)C(=O)c2cc(NC(=O)Nc3ccc(F)cc3)ccc2O[C@@H]1CN(C)S(=O)(=O)c1cccs1 | 1.6
C[C@@H]1CN([C@@H](C)CO)C(=O)Cc2cc(NC(=O)NC3CCCCC3)ccc2O[C@H]1CN(C)S(=O)(=O)c1ccc(F)cc1 | -0.7
